Menin-MLL FL inh: qHTS Assay for Inhibitors Targeting the Menin-MLL Interaction in MLL Related Leukemias: Competition With Fluorescein Labeled MLL-derived Peptide. Fluorescence polarization, fluorescein-MLL peptide displacement from menin. FP activity change, % at 61.4 µM. 290,000 tested, under 10 active; inconclusive = falling polarisation curve, or a change in total fluorescence; inactive = total fluorescence flat and polarisation flat or rising; no compound was filed as active; the % refers to the polarisation; negative = inhibition;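 further: % of control where 0% means no effect; inhibitors lower the polarisation; unlabelled MLL peptide was the positive control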
gsp antagonist: qHTS for Antagonists of gsp, the Etiologic Mutation Responsible for Fibrous Dysplasia/McCune-Albright Syndrome: qHTS | AID 624288, 2012 | 340,000 compounds, 0.4% hits | gsp-mutant cells, cAMP HTRF, 30 min; control for the full effect not named in the record | Potency, µM (titrated, usually from 76.9 µM), for inactives: at the highest dose activity change, negative = inhibition, actives largely listed as inhibitors; active = falling curve of any shape with a large fitted effect; inconclusive = falling curve, mostly with a smaller effect; inactive = flat or rising curve; cell line not stated here;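 further: intracellular cAMP measured with PDE inhibitor Ro 20-1724 present during compound exposure; potency means the concentration at half of the fitted maximal effect; on the % scale 0 is the no-effect control and ±100 the full control effect; nearly all actives have a fitted effect of over 65% in size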
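Cells, 2000/well, grown 16–24 h in DMEM 10% FBS with 0.5 mg/ml G418, then compounds plus […] (300 uM addition stock), 30 min at 37C. cAMP read by HTRF (cAMP-d2 and anti-cAMP antibody-K in lysis buffer) after 30 min RT.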
ClpP mod: qHTS Assay for Activators of ClpP; ATP-dependent Clp protease proteolytic subunit (Bacillus subtilis (strain 168)), P80244; purified B. subtilis ClpP, FRET peptide cleavage, 20 min; Potency, µM (doses to about 57.5 µM), inactives show at the top dose activity change, negative = active; 340,000 compounds, 1.9% hits; active = well fitted falling curve with a large enough effect; inconclusive = small, poorly fitted or top-dose-only effect; inactive = no such curve, though single readings can be large or run the other way; further: potency means the concentration at half of the fitted maximal effect; the source files actives as falling curves though it sought activators and does not explain the sign; nearly all actives have a fitted effect of over 65% in size; many hits overshoot -100%
Target sequence (P80244 whole entry, looked up): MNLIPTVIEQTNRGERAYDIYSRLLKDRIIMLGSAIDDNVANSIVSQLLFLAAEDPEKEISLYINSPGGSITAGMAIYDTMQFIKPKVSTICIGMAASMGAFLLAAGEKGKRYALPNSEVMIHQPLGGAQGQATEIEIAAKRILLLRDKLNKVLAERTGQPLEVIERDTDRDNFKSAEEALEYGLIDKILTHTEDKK
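Buffer: 100 mM Tris/HCl pH8, 100 mM KCl, 0.05% low protease BSA, 2.5% glycerol, 0.01% Tween-20. ClpP 10 microg/mL final; 20 min RT; delta FRET normalized to ADEP and DMSO controls.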
TRPML1 inh: qHTS for Inhibitors of the Human Mucolipin Transient Receptor Potential 1 (TRPML1); 390,000 compounds, 0.02% hits; activity change, negative = inhibition, % (no concentration beside the values); TRPML1-inducible cells, Ca2+ dye fluorescence, FDSS; stronger effect = lower value; inhibition of EC80 agonist-evoked calcium signal; Mucolipin-1 (Homo sapiens), Q9GZU1; AID 624415, 2012; in the data active means activity change below about -50%; inconclusive means about -30% to -50%; inactive means above about -30%;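 further: stimulus is agonist 54-4 at its EC80 concentration; on the % scale 0 is the no-effect control and ±100 the full control effect; compound concentration not given in the record; the text of the record puts the active cut at -80%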
Target sequence (Q9GZU1 whole entry, looked up): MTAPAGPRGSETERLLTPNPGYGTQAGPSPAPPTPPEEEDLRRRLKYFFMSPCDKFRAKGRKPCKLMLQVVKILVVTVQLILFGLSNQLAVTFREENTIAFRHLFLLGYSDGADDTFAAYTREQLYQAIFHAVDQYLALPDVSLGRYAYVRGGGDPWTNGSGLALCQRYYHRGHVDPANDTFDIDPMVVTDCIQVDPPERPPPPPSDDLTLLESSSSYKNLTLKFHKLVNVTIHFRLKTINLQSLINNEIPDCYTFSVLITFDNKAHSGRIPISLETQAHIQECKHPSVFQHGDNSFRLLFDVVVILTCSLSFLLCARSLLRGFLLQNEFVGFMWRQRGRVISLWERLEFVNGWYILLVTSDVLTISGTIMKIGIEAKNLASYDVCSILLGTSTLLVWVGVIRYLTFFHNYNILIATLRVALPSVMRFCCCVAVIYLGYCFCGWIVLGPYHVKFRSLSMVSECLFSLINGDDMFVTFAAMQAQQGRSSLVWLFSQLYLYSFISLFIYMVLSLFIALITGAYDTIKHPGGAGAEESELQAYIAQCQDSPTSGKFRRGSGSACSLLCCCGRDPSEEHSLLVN
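Tet-induced TRPML1-DL cells loaded with Ca8 no-wash calcium dye were read kinetically on FDSS. Compound addition was followed by EC80 agonist 54-4 (4 uM final); inhibition was read over 110 s.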
Sfp PPTase inh: qHTS Assay for Inhibitors of Bacillus subtilis Sfp phosphopantetheinyl transferase (PPTase). 4'-phosphopantetheinyl transferase ffp (Bacillus subtilis), Q9F4F7. Biochemical Sfp PPTase activity, qHTS. Potency, µM, without a hit: max response, negative = inhibition, actives largely listed as inhibitors. 310,000 compounds, 3.5% hits; active means well fitted inhibition curve with a large enough effect; inconclusive means small, poorly fitted or top-dose-only effect, or another doubt; inactive means no such curve, though single readings can be large or run the other way;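 further: the enzyme is Sfp with the accession as filed and its product quenches rhodamine fluorescence; potency means the concentration at half of the fitted maximal effect; 0% = enzyme reaction without inhibitor and -100% = no enzyme wells; top concentration of the series not given in the record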
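Compounds were incubated with enzyme (final 15 nM) for 15 min at room temperature before substrate addition started the reaction. Fluorescence at 525 nm excitation, 598 nm emission was recorded immediately and after 30 minutes.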
TRPV1 potentiator: HTS Assay for Compounds that Act as Potentiators of the Vanilloid Receptor 1; AID 540277, 2011; TRPV1-expressing cells, Fluo-8 calcium influx, capsaicin EC20 potentiation; host cell line not named in the record; control for the full effect not named in the record; potentiation, % at 8.33 µM; 320,000 compounds, 0.02% hits; active means potentiation above 80%; inconclusive means 30% to 80%; inactive means below 30%; further: 0% is about no effect
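TRPV1-expressing cells were cultured overnight at 35.5C and loaded with Fluo-8 calcium dye for 40 to 90 min at room temperature. After a 10 s baseline, compound was added and calcium influx was read kinetically for 3 min (ex 480/em 520 nm).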
gsp agonist: qHTS for Agonist of gsp, the Etiologic Mutation Responsible for Fibrous Dysplasia/McCune-Albright Syndrome: qHTS; gsp mutant cells, cAMP HTRF, 30 min; control for the full effect not named in the record; Potency, µM (highest dose often 76.9 µM), for the others: at the top dose activation (cAMP increase), most hits filed as activators; 340,000 compounds, 0.13% hits; active = well fitted activation curve with a large enough effect; inconclusive = small, poorly fitted or top-dose-only effect, or another doubt; inactive = no such curve, though single readings can be large or run the other way; cell line not stated here;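 further: phosphodiesterase inhibitor Ro 20-1724 added with compounds to block cAMP breakdown; potency means the concentration at half of the fitted maximal effect; nearly all actives have a fitted effect of over 60% in size; about a fifth of the inactives were tested at one dose only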
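Cells in DMEM/10% FBS with G418 were pretreated with compounds in DMSO plus […] (300 uM stock) for 30 min at 37C. cAMP was measured by HTRF (cAMP-d2 plus anti-cAMP antibody-K) after 30 min at room temperature.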
An asterisk follows results filed as active; u = inconclusive; x = no result given; [ ] = remark or other dose. Rows were taken by chance; any-hit rate near 4.9%.

SMILES,gsp agonist,Menin-MLL FL inh,gsp antagonist,TRPML1 inh,ClpP mod,TRPV1 potentiator,Sfp PPTase inh
CCN(CC)S(=O)(=O)c1cccc(C(=O)N[C@H](C(=O)NCc2ccc(Cl)cc2)C(C)C)c1,3.7%,0.8,2.9%,4.2,-3.5%,-8.2,16.3%
COC(=O)c1ccc(-n2c(C)cc(C(=O)COC(=O)CC3Sc4ccccc4NC3=O)c2C)cc1 (centres undefined),-10.4%,1.4,1.0%,-1.3,-6.2%,-3.5,0.5%
C=CCc1cccc(CNc2c(C)cc(C)cc2C)c1O,12.1%,5.6,-0.1%,11.7,x,1.8,-4.5%
CCOc1cc2[nH]c(=O)n(CCC(=O)N3CCN(c4ccccc4OC)CC3)c(=O)c2cc1OCC,-38.7%[inhibitor],-0.6,6.3%,-0.4,u,-17.2,23.2%
C/C(=N\N1CCN(Cc2ccc(Cl)cc2)CC1)c1ccc([N+](=O)[O-])cc1,u,-4.9,-10.8%,-4.2,x,6.8,-9.2%
CC1(C)Oc2ccc(C(=O)NC3CCCC3)cc2N(CC(=O)NC2CCCC2)C1=O,11.0%,-2.9,-0.2%,-12.1,-0.9%,6.3,12.2%
c1ccc(CCn2nnnc2CN2CCc3ccccc32)cc1,-18.9%,0.0,-3.1%,3.2,-2.2%,-7.6,1.3%
O=C(CNS(=O)(=O)c1ccccc1)Nc1ccc2c(c1)OCO2,u,-6.2,-0.1%,4.1,x,-0.2,17.1%
COc1cccc(C#CC2=CC(=O)C[C@H](c3ccc(F)cc3)C2)c1,-23.9%,x,x,55.8,-2.9%,x,x
CCC(=O)OC1(C(C)=O)CCC2C3CCC4=CC(=O)CCC4(C)C3CCC21C (centres undefined),-55.9%[inhibitor],x,-26.3%,75.3,x,x,x
CCOc1ccccc1N(C(=O)c1ccco1)C(C(=O)NC1CCCC1)c1cccnc1 (centres undefined),-6.8%,3.5,4.9%,9.9,-0.6%,24.7,6.1%
O=c1cc2oc3cc(O)c(O)cc3c(-c3ccccc3[N+](=O)[O-])c-2cc1O,-9.1%,-2.4,-18.4%,9.0,0.0%,17.4,35.5µM*
CCCCN(Cc1cc2cc(OC)ccc2[nH]c1=O)C(=O)c1ccccn1,17.1%,0.8,-11.6%[15.4 µM],-5.0,20µM*,-5.9,-6.4%
CCC(C)[C@H](NS(=O)(=O)c1ccc(F)cc1Br)C(=O)OC (some centres undefined),x,x,2.0%,-1.5,0.3%,x,x
CCN(CC(=O)NCc1cccs1)c1ccc(S(=O)(=O)N2CCOCC2)cn1,-1.4%,0.1,3.1%,4.2,-7.9%,-8.4,28.0%
N#CCc1ccnc2ccccc12,25.3%,x,1.2%,22.6,x,x,x
CC12CCC(/C(=N/O)C1=O)C2(C)C (centres undefined),x,-3.7,x,3.9,x,x,3.3%
O=[N+]([O-])c1cccc(CN2CCN(S(=O)(=O)Cc3ccccc3)CC2)c1,0.6%,x,-10.8%,1.1,1.1%,9.3,9.3%
CNC(=S)N/N=C/c1cc(Br)cc(Br)c1O,-1.1%,5.7,0.2%,-23.1,-9.8%,-15.1,-3.9%
CCc1[nH]c(=O)c(C#N)c2c1COC(C)(C)C2,2.9%,2.0,2.3%,-9.9,25.1µM*,4.4,19.4%
Cc1ccccc1CN(C)CCS(=O)(=O)c1cc(Cl)ccc1Cl,-35.9%[inhibitor],-0.6,-5.0%,18.6,0.8%,0.4,-14.0%
COc1ccc(S(=O)(=O)N(n2c(C)nnc2-n2nc(C)cc2C)S(=O)(=O)c2ccc(OC)cc2)cc1,-32.6%[inhibitor],-0.8,-7.4%,0.4,0.0%,-35.9,-6.4%
Fc1cccc(Cc2noc(CN3CCSCC3)n2)c1,1.5%,-1.3,4.4%,10.1,x,-2.6,1.8%
Cc1cc(C(=O)CN2C(=O)NC3(CCCc4ccccc43)C2=O)c(C)n1C (centres undefined),9.0%,3.5,-0.1%,-10.6,-1.3%,29.2,-9.1%
NC(=O)c1ccc(NC(=O)COc2coc(CN3CCc4ccccc4C3)cc2=O)cc1,10.9%,x,-1.6%,-9.0,1.1%,-1.9,x
COc1cccc(OCC(=O)NC2CCCCC2)c1,-38.1%[inhibitor],0.9,12.9%,-13.8,1.3%,-20.2,15.4%
Cn1cc(S(=O)(=O)N2CCN(c3ccc(F)cc3)CC2)c(=O)n(C)c1=O,-13.7%,3.6,8.9%,3.8,0.3%,-0.6,12.6%
CC1CCc2sc(C(=O)NC3CCN(Cc4ccccc4)CC3)cc2C1 (centres undefined),-13.9%,x,-7.5%,-0.8,-1.0%,-15.2,x
COCCNC(=O)c1cn(C)c2ccc(S(=O)(=O)N3CCCC3)cc2c1=O,4.3%,x,50.1µM*,5.2,-2.1%,3.0,6.6%
COc1cccc(Oc2c(C)oc3c(CN4CCCCC4)c(O)ccc3c2=O)c1,u,0.1,-0.6%,34.7,3.7%,6.8,12.2%
Cn1cnc([N+](=O)[O-])c1S(=O)(=O)Oc1cccc2ccccc12,21.3%,x,-14.1%,2.6,x,x,x
COc1ccc(C(=O)NCCCCNC(=O)c2ccc(OC)c(OC)c2)cc1OC,-24.1%,1.5,0.5%,-3.3,-0.3%,2.8,10.4%
O=C(Cc1ncc(C(F)(F)F)cc1Cl)NCCc1ccccn1,-37.3%[15.4 µM],2.8,u,10.4,x,u,16.4%
Cc1ccc(CNCCCn2cnc3c(OCc4ccccc4)ncnc32)o1,x,x,10.6%,-19.7,-1.4%,x,x
Cc1cccc(-n2ncc3c2CCCC3NC(=O)CCc2ccncc2)c1C (centres undefined),-0.1%,-2.2,-8.1%,-2.9,-0.8%,12.5,-3.2%
CC(C)c1ccc(C=NNc2ccc([N+](=O)[O-])cn2)cc1,23.9%,x,6.3%,24.3,x,x,x
CCNC(=S)NC(=NCc1cccnc1)Nc1nc(C)cc(C)n1,-31.4%[inhibitor],-11.3,-17.0%,-2.7,0.7%,18.6,25.1µM*
CCCC(=O)C1=C(O)C(C(=O)OC)C(C)(C)CC1=NCc1ccccc1 (centres undefined),-23.6%[15.4 µM],10.3,-36.7%,55.6,0.8%,-15.6,9.9%
CCOc1ccc2nc(N/C(N)=N/S(=O)(=O)c3ccc(C)cc3)nc(C)c2c1,-117.1%[inhibitor],x,x,-4.2,u,x,x
O=[N+]([O-])c1ccc(-n2nnnc2CN2CCCCC2)cc1,3.2%,-2.7,11.7%,6.9,x,-12.5,7.3%
COCCNC(=O)C1CCN(C(=O)c2cc3sccc3n2Cc2ccc(F)cc2)CC1,-41.4%[inhibitor],-1.2,-19.5%,9.4,-0.4%,-4.6,10.8%
Cc1cccc(C)c1NC(=O)CN1CCN(C(=O)CNC(=O)c2ccc(N3CCCC3=O)cc2)CC1,24.6%,x,9.6%,-4.1,-0.2%,-1.1,x
CC(=O)Nc1ccc(N(C(=O)CNC(=O)c2cccs2)C(C(=O)NCC2CCCO2)c2ccccc2)cc1 (centres undefined),-11.1%[15.4 µM],-1.2,7.3%,10.7,0.0%,-10.4,21.3%
CC(C)C[C@H](NC(=O)OC(C)(C)C)C(=O)N/N=C/c1ccc2nccnc2c1,-3.0%,6.4,13.9%,-5.6,-6.3%,9.1,12.6%
CC(C)Cn1c(SCc2nnc(-c3cccs3)o2)nc(O)cc1=O,-40.2%[inhibitor],0.1,-25.3%,-11.7,-0.7%,27.8,-10.6%
Cc1cc(C)n(-c2nc(NCCN(C)C)c3c4c(sc3n2)COC(C)(C)C4)n1,2.1%,2.2,16.1%,-12.5,x,27.3,-2.2%
COc1ccc(CCC(=O)O)cc1OC,-8.5%[15.4 µM],-0.8,-0.1%,-11.5,x,-15.0,27.6%
Cc1ccc(NC(=O)/C=C/c2ccco2)nc1,0.8%,6.2,30.8%[activator],35.7,-6.7%,-5.6,13.4%
CCc1ccc(OCC(=O)NC2CCCCC2)c(Br)c1,-23.7%,x,-28.8%,-7.4,0.8%,-4.0,5.1%
O=C(CSc1nc2nc(-c3cccs3)cc(C(F)(F)F)c2c(=O)[nH]1)NCc1ccco1,u,5.3,19.2%,17.2,8.91µM*,11.3,-10.7%
COCCCNC(=O)/C(C#N)=C/c1c(N2CCN(c3ccccc3)CC2)nc2ccccn2c1=O,5.4%[15.4 µM],0.3,-3.0%,-14.1,-1.5%,-3.0,5.1%
COc1ccc(S(=O)(=O)N2CCOCC2)cc1NC(=O)CSc1nnc(N)s1,u,x,20.7%,24.2,0.5%,5.3,x
C=CCNc1nc(C(=O)OCC(=O)NCc2ccccc2OC)cs1,1.2%,x,0.0%,7.5,-4.4%,2.3,x
O=C(/C=C/c1ccco1)OCC(=O)c1ccc(OC(F)F)cc1,27.3%,x,-0.1%,7.0,-0.4%,-4.1,x
Cc1cccc[n+]1CC(=O)Nc1ccccc1,14.8%[15.4 µM],-0.4,4.7%,-4.3,1.5%,7.4,23.8%
COc1ccccc1S(=O)(=O)NCc1ccc(C(=O)N(C)Cc2ccc(F)cc2)cc1,8.4%,x,2.0%,-6.7,-3.8%,-20.6,x
CCc1c(C)c(C#N)c2nc3ccccc3n2c1N1CCN(c2cc(C)ccn2)CC1,x,0.4,x,x,x,8.3,6.0%
CCCn1c(SC(C(=O)Nc2cc(C)ccc2OC)c2ccccc2)nc2ccccc2c1=O (centres undefined),8.5%,1.2,13.4%,-3.6,1.7%,1.3,5.2%

Bioassay records deposited in PubChem by National Center for Advancing Translational Sciences (NCATS).
